# ID4 binder – binders of human ID4 protein. small molecule microarray, Flag-ID4 binding, fluorescence F/B. calls only. 31,000 tested, 1.2% active;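 active = spot signal over background at p below 0.07 in all four prints; compounds were printed on slides so no solution concentration is given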;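 note: a binder raises fluorescence above local background on the spot; about 2 pmol printed per array spot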
# Target sequence (P47928 whole entry, looked up): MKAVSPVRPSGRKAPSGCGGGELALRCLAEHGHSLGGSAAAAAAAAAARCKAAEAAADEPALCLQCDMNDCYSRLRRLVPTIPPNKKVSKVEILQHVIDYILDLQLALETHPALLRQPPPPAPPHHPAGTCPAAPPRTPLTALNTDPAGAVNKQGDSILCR
# Calls only; i = inactive; + = active, no number.
compound	ID4 binder
C/C=C/c1cnc2c(c1)C(=O)N([C@@H](C)CO)C[C@@H](C)[C@@H](CN(C)C(=O)NCCC)O2	i
CCCNC(=O)C[C@H]1C[C@@H]2c3cc(N(C)C)ccc3O[C@@H]2[C@H](CO)O1	i
C=CCNC(=O)[C@H]1[C@@H]2C(=O)O[C@@H](c3ccccc3)[C@@H](c3ccccc3)N2[C@@H](c2ccc(O)cc2)[C@]12C(=O)Nc1ccc(C#CCCO)cc12	i
O=C(CSc1nnc(-c2ccccc2Cl)n1-c1ccccc1)Nc1ccccc1Cl	i
O=C(c1ccccc1)c1nn(-c2ccc(Cl)cc2)ccc1=O	i
COC(=O)C1=C(C)NC2=C(C(=O)c3ccccc32)C1c1ccc(OCc2cccc([N+](=O)[O-])c2)c(Br)c1 (stereo not given)	i
CC(C)NC(=O)N[C@@H]1C=C[C@@H](CC(=O)NCCCN(C)C)O[C@@H]1CO	i
O=C(COc1cccc(NC(=O)c2ccc([N+](=O)[O-])cc2)c1)c1ccc(F)cc1	i
Cc1noc(NS(=O)(=O)c2ccc(NC(=O)C3COc4ccccc4O3)cc2)c1C (stereo not given)	i
C[C@@H]1CN([C@@H](C)CO)C(=O)c2cc(C3=CCCC3)cnc2O[C@H]1CN(C)Cc1ccccn1	i
CC(=O)N(C)C[C@H]1Oc2ncc(-c3ccccc3C)cc2C(=O)N([C@@H](C)CO)C[C@@H]1C	i
O=c1c(-c2ccc(O)cc2)coc2cc(O)ccc12	i
C[C@H]1CN([C@@H](C)CO)C(=O)CCCn2cc(nn2)CO[C@@H]1CN(C)Cc1cccc(C(F)(F)F)c1	i
COc1ccccc1CNC(=O)c1cc2ccccc2oc1=O	i
CCN1CCOC(CC(=O)Nc2cc(C(=O)OC)cc(C(=O)OC)c2)C1=O (stereo not given)	i
C[C@@H](O)C#Cc1ccc2c(c1)O[C@H](CN(C)C(=O)CN(C)C)[C@@H](C)CN([C@@H](C)CO)S2(=O)=O	i

# Random excerpt: 6 compounds from above, in no set order.
compound	ID4 binder
COc1ccccc1CNC(=O)c1cc2ccccc2oc1=O	i
C/C=C/c1cnc2c(c1)C(=O)N([C@@H](C)CO)C[C@@H](C)[C@@H](CN(C)C(=O)NCCC)O2	i
C[C@@H]1CN([C@@H](C)CO)C(=O)c2cc(C3=CCCC3)cnc2O[C@H]1CN(C)Cc1ccccn1	i
O=c1c(-c2ccc(O)cc2)coc2cc(O)ccc12	i
O=C(COc1cccc(NC(=O)c2ccc([N+](=O)[O-])cc2)c1)c1ccc(F)cc1	i
O=C(CSc1nnc(-c2ccccc2Cl)n1-c1ccccc1)Nc1ccccc1Cl	i

# (cont.)
compound	ID4 binder
CCC(=O)N[C@H]1CC[C@@H](CC(=O)OC)O[C@@H]1CO	i
C[C@@H]1CC[C@@]23CCC4(C)[C@@](C=CC5[C@@]6(C)CC[C@H](O)C(C)(C)C6CC[C@]54C)(OC2=O)C3[C@H]1C (stereo not given in full)	i
O=C(C[C@@H]1C=C[C@@H](NC(=O)CCN2CCCCC2)[C@H](CO)O1)NCc1ccc(Cl)c(Cl)c1	i
Cc1cc(C)nc(NS(=O)(=O)c2ccc(Nc3nc(-c4ccc(O)cc4)cs3)cc2)n1	i
C/C=C/c1cnc2c(c1)C(=O)N([C@H](C)CO)C[C@@H](C)[C@H](CN(C)C(=O)c1cccc(F)c1)O2	i
O=C(O)CCNC(=O)c1ccccc1	i
O=C(COc1ccc(Cl)cc1Cl)Nc1cc(C(=O)O)cc(C(=O)O)c1	i
C[C@H](CO)N1C[C@H](C)[C@H](CN(C)C(=O)CN(C)C)Oc2ncc(-c3ccc(F)cc3)cc2C1=O	i
COc1ccc2nc(SCC(=O)Nc3ccc4c(c3)OCCO4)[nH]c2c1	i
O=C(COc1ccc([N+](=O)[O-])cc1)Nc1cccc(-c2nc3cc(Cl)ccc3o2)c1	i
C=C1C2CC[C@@]3(C)[C@H](c4ccoc4)OC(=O)C[C@]13O[C@H]1CC(=O)C(C)(C)[C@H](C(O)C(=O)OC)[C@@]21C (stereo not given in full)	i
C[C@H](CO)N1C[C@H](C)[C@H](CN(C)CC2CC2)Oc2ccc(NC(=O)C3CCCCC3)cc2C1=O	i
O=C(CSc1nnc(-c2ccco2)o1)Nc1cccc2ccccc12	i
COc1ccccc1N(CC(=O)Nc1ccc(C(F)(F)F)cc1)S(C)(=O)=O	i
C[C@H](CO)N1C[C@H](C)[C@H](CN(C)C(=O)c2ccc(F)cc2)Oc2cc(C3=CCCC3)ccc2S1(=O)=O	i
C[C@@H]1CN([C@@H](C)CO)C(=O)c2cc(/C=C/c3ccccc3)cnc2O[C@@H]1CN(C)Cc1ccccc1	i
O=C(c1ccc(CNS(=O)(=O)c2ccc(Br)cc2)cc1)N1CCCC1	i
CC(C)[C@@H](C)NC(=O)N(C)C[C@@H]1OCc2ccccc2-c2ccccc2C(=O)N([C@@H](C)CO)C[C@@H]1C	i
COCC(=O)N[C@H]1C=C[C@H](CC(=O)N2CCCCC2)O[C@@H]1CO	i
COc1ccc(-c2nnc(SCC(=O)Nc3cccc(C)c3C)o2)cc1	i
Cc1cc(-n2c(SCC(=O)Nc3ccccc3)nnc2-c2cccnc2)ccc1Cl	i
Cc1cc(C)n2nc3nc(N4CCOCC4)nc(-c4ccc(C(C)C)cc4)c3c2n1	i
Cn1cnc(S(=O)(=O)N[C@H]2CC[C@@H](CC(=O)N3CCN(c4ccccc4)CC3)O[C@H]2CO)c1	i
CC(C)OC(=O)N(C)C[C@@H]1OCc2ccccc2-c2ccccc2C(=O)N([C@H](C)CO)C[C@H]1C	i
O=S(=O)(Nc1ncccn1)c1ccc(NC(=S)Nc2ccc3c(c2)CCC3)cc1	i
CCN(CC(=O)Nc1cccc([N+](=O)[O-])c1)S(=O)(=O)c1ccc(Br)cc1	i
CS(=O)(=O)N(CC(=O)Nc1cccc(Br)c1)c1ccccc1F	i
COc1ccc(NC(=O)CS(=O)(=O)Cc2ccccc2)c([N+](=O)[O-])c1	i
C[C@@H](NC(=O)C[C@@H]1CC[C@@H](NC(=O)C2CC2)[C@@H](CO)O1)c1ccccc1	i
CN1C(=O)C(CC(=O)Nc2ccc(Cl)cc2)N(Cc2ccco2)C1=S (stereo not given)	i
Cc1cc(=O)[nH]c(Nc2nc(C)c3cccc(C)c3n2)n1	i
O=C(C[C@H]1C=C[C@H](NC(=O)Nc2cccc(F)c2)[C@@H](CO)O1)NCC1CCCCC1	i
CCOC(=O)Cc1nc(OCC(=O)c2ccc(F)cc2)cs1	i
Cc1cc(I)ccc1NC(=O)Cn1ccc([N+](=O)[O-])n1	i
COc1ccc(Cl)cc1NC(=O)CSc1nnnn1-c1ccc(C(=O)O)cc1	i
COc1ccc(-c2nc3c(c(SC)n2)COC(C)(C)C3)cc1	i
O=C(C[C@H]1C=C[C@H](NS(=O)(=O)c2cccc(F)c2)[C@@H](CO)O1)N1CCCCC1	i
C[C@@H](NC(=O)C[C@H]1CC[C@H](NC(=O)C2CC2)[C@@H](CO)O1)c1ccccc1	i
CN1CCN(C(=O)C[C@H]2CC[C@@H](NS(=O)(=O)c3cccc(F)c3)[C@H](CO)O2)CC1	i
C[C@H]1CN([C@@H](C)CO)C(=O)c2cccc(NC(=O)C3CCCCC3)c2O[C@@H]1CN(C)CC1CC1	i
CC(=O)N(C)C[C@@H]1Oc2ncc(C#CCc3ccccc3)cc2C(=O)N([C@H](C)CO)C[C@H]1C	i
O=C(COc1ccc(Br)cc1)Nc1cccc(-c2nnc(-c3ccccc3)o2)c1	i
CC(NS(=O)(=O)c1ccc(F)cc1)C(=O)Nc1ccc(C(N)=O)cc1 (stereo not given)	i
O=C(COc1ccccc1[N+](=O)[O-])Nc1ccc2oc(-c3ccccc3F)nc2c1	i
COc1ccc(OC)c(NC(=O)CSc2nnc(-c3ccc(Cl)cc3Cl)n2C)c1	i
COc1ccc(C)cc1S(=O)(=O)N(C)CC(=O)N1CCN(C)CC1	i
CC(C)C#Cc1ccc2c(c1)O[C@H](CN(C)C(=O)c1cnccn1)[C@H](C)CN([C@@H](C)CO)S2(=O)=O	i
COCC#Cc1cnc2c(c1)C(=O)N([C@H](C)CO)C[C@H](C)[C@@H](CN(C)Cc1ccc(F)cc1)O2	i
OC(COc1ccccc1F)Cn1cnc2ccccc21 (stereo not given)	i
COc1cc2c(cc1O)C=[N+](Cc1cccc(OC(F)(F)F)c1)CC2	i
COc1ccc(-c2nc(N)ncc2-c2cscn2)c(O)c1	i
C[C@H](CO)N1C[C@H](C)[C@H](CN(C)C(=O)c2ccncc2)Oc2cc(/C=C/c3ccccc3)ccc2S1(=O)=O	i
O=C(COc1ccc([N+](=O)[O-])cc1)Nc1ccc2oc(-c3cccc(Br)c3)nc2c1	i
Cc1nn(CC(=O)Nc2ccc(C#N)cc2)c(C)c1[N+](=O)[O-]	i
COc1ccc(C(=O)CSc2nnc(-c3ccc(OC)c(OC)c3)n2-c2ccc(C)cc2)cc1	i
Cc1sc(NC(=O)COc2ccc(Cl)cc2Cl)c(C(N)=O)c1C	i

# (list continues)
compound	ID4 binder
COc1ccc(N2C(=O)CC(SCC(=O)Nc3ccc(F)cc3)C2=O)cc1 (stereo not given)	i
CCCc1nc(SCC(=O)c2ccccc2Cl)[nH]c(=O)c1C	i
S=C1NCCN1CCOc1ccccc1	i
OCCN1CCN(CC#CCn2c3ccccc3c3ccccc32)CC1	i
COc1cc(Br)c(CCNC(=O)c2ccco2)cc1OC	i
O=c1[nH]ncc(N2CCCCCC2)c1Cl	i
Cc1ccc2nc(-c3ccncc3)cc(C(=O)NCc3ccccn3)c2c1	i
C[C@H]1CN([C@@H](C)CO)C(=O)c2cc(-c3cccc(C#N)c3)cnc2O[C@@H]1CN(C)Cc1ccccc1	i
Cc1cccc(C)c1NC(=O)CC(C(=O)O)N(C)C (stereo not given)	i
CC(C)Cc1ccc(C(C)c2nc(-c3cccs3)no2)cc1 (stereo not given)	i
COc1ccc2[nH]cc(CCNC(=O)c3ccc(Cl)cc3)c2c1	i
O=C(NCCc1c[nH]c2ccccc12)Nc1cccc2ccccc12	i
O=C(OCc1nc2ccccc2s1)c1ccc([N+](=O)[O-])cc1	i
Cc1ccc(N(C(C)C(=O)Nc2cc(C(F)(F)F)ccc2Cl)S(C)(=O)=O)cc1C (stereo not given)	i
O=C(C[C@@H]1CC[C@H](NC(=O)C2CCC2)[C@@H](CO)O1)NCCCN1CCOCC1	i
O=C(CSc1nc(-c2ccccc2)c2cc(Cl)ccc2n1)N1N=CCC1c1ccccc1 (stereo not given)	i
CC(C)C#Cc1cnc2c(c1)C(=O)N([C@H](C)CO)C[C@H](C)[C@H](CN(C)C(=O)C1CCC1)O2	i
FC(F)(F)c1cc(N2CCCCC2)c2cccc(Cl)c2n1	i
COc1ccc(-c2cc3ccccc3oc2=O)cc1NC(=O)COc1ccc(C(C)(C)C)cc1	i
CC(C)(Oc1ccc(Cl)cc1)C(=O)Nc1cccc(-c2nc3ncccc3o2)c1	i
COCC#Cc1cnc2c(c1)C(=O)N([C@H](C)CO)C[C@@H](C)[C@H](CN(C)C)O2	i
C[C@H](O)C#Cc1cnc2c(c1)C(=O)N([C@H](C)CO)C[C@@H](C)[C@H](CN(C)C(=O)c1ccncc1)O2	i
C[C@@H]1CN([C@@H](C)CO)C(=O)c2cc(-c3cccc(F)c3)cnc2O[C@H]1CN(C)Cc1ccncc1	i
COC(=O)c1ccc(NC(=O)CSc2nnc(-c3ccc(NC(C)=O)cc3)n2C)cc1	+
CSc1nc(SCC(=O)Nc2cccc(C)c2)c2c3c(sc2n1)CCCC3	i
COc1ccccc1-c1cnc2c(c1)C(=O)N([C@@H](C)CO)C[C@H](C)[C@@H](CN(C)C)O2	i
CCn1c(SCC(=O)Nc2ccc(C(=O)O)cc2)nnc1-c1ccc(Cl)cc1	i
CN(C)CC(=O)N[C@H]1C=C[C@H](CC(=O)NCc2ccccc2F)O[C@@H]1CO	i
COc1cccc(C#Cc2ccc3c(c2)O[C@H](CN(C)C)[C@@H](C)CN([C@@H](C)CO)S3(=O)=O)c1	i
COc1ccc(CN2C(=O)C(O)(CC(=O)c3ccc(C)s3)c3ccccc32)cc1OC (stereo not given)	i
CC(C)CC#Cc1cnc2c(c1)C(=O)N([C@@H](C)CO)C[C@H](C)[C@@H](CN(C)Cc1ccccc1)O2	i
COCC#Cc1ccc2c(c1)O[C@H](CN(C)CC1CCCC1)[C@@H](C)CN([C@H](C)CO)S2(=O)=O	i
CCC(=O)Nc1nonc1-c1nc2ccccc2n1Cc1cc(OC)ccc1C	i
C[C@H](CO)N1C[C@H](C)[C@H](CN(C)Cc2cncnc2)Oc2cc(-c3ccncc3)ccc2S1(=O)=O	+
O=C(Cn1c(=O)n(-c2cccc(C(F)(F)F)c2)c(=O)c2sccc21)N1CCCc2ccccc21	i
COc1ccccc1C1CCN(S(=O)(=O)c2ccc(-c3csc(C)n3)s2)CC1	i
COc1ccc(NC(=O)Nc2ccc3c(c2)[C@@H]2C[C@H](CC(=O)NCc4ccccc4F)O[C@@H](CO)[C@@H]2O3)cc1	i
O=C(NCc1ccco1)C1CC(c2cccc(Br)c2)=NO1 (stereo not given)	i
C[C@@H]1CN([C@@H](C)CO)C(=O)c2cc(C3=CCCC3)cnc2O[C@H]1CN(C)C(=O)c1ccc(F)cc1	i

# Compounds from the list above containing a COOH group (5):
compound	ID4 binder
O=C(O)CCNC(=O)c1ccccc1	i
O=C(COc1ccc(Cl)cc1Cl)Nc1cc(C(=O)O)cc(C(=O)O)c1	i
COc1ccc(Cl)cc1NC(=O)CSc1nnnn1-c1ccc(C(=O)O)cc1	i
Cc1cccc(C)c1NC(=O)CC(C(=O)O)N(C)C (stereo not given)	i
CCn1c(SCC(=O)Nc2ccc(C(=O)O)cc2)nnc1-c1ccc(Cl)cc1	i

# Only part of the results is shown (hit frequency here may not be typical).
